Source: PubChem BioAssay
hNpr1 antagonist = Natriuretic polypeptide receptor (hNpr1) antagonism - Primary qHTS; Atrial natriuretic peptide receptor 1 (Homo sapiens), P16066; Potency, µM (highest dose often 46.3 µM), without a hit: top-dose activity change, negative = inhibition, hits mostly inhibitors; HEK293 hNpr1 GloSensor cGMP, ANP-stimulated luminescence; 1.6% of 76,000 active; active = well fitted inhibition curve with a large enough effect; inconclusive = small, poorly fitted or top-dose-only effect; inactive = no such curve, though single readings can be large or run the other way;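 note: nearly all actives have a fitted effect of over 60% in size; nearly all hits also lower the signal before the agonist is added; a reference antagonist and vehicle were the controls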
Target sequence (P16066 whole entry, looked up): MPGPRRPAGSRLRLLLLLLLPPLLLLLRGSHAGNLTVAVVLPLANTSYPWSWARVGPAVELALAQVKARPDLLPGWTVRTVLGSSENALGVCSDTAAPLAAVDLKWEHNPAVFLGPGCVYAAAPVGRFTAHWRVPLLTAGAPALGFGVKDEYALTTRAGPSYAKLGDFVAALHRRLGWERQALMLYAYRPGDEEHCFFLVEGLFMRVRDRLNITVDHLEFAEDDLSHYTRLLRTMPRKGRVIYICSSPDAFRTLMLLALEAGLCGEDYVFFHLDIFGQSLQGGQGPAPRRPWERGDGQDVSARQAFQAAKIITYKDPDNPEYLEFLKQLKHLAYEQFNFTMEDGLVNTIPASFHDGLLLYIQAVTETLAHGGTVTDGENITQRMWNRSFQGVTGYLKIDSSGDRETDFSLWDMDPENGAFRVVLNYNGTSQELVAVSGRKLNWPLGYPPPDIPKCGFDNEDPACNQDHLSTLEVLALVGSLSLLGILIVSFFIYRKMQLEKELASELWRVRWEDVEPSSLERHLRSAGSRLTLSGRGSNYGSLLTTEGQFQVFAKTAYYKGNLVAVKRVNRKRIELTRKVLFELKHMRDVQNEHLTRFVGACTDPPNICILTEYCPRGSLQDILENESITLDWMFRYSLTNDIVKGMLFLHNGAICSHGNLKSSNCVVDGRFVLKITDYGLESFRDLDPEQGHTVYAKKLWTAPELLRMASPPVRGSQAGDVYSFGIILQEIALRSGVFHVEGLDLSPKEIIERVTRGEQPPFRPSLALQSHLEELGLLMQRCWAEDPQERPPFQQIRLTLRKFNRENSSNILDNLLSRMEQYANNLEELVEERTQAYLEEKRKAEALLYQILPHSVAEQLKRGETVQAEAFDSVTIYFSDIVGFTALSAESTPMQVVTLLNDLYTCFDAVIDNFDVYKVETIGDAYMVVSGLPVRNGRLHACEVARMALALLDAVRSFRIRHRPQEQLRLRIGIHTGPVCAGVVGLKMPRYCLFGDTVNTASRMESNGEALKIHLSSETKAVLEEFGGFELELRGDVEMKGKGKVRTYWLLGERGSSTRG
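HEK293 cells stably expressing human Npr1 and cGMP GloSensor pGS-40F, loaded 2 h with 2% GloSensor reagent, given compound 30 min at room temperature. Luminescence read before and 20 min after 0.1 nM hNppA.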
Active calls of the source: *; ? = inconclusive; [ ] = another dose, or the depositor's remark. % is set by controls: 0 for no effect and ±100 for the full control effect; potency is the fitted concentration of half-maximal effect. These rows are one share of the data; the hit share may differ from the screen's.

hNpr1 antagonist,Molecule
-8%,CC(C)NC(=O)C1COC2(CCCCC2)N1C(=O)Cc1ccccc1 (stereo unspecified)
-25%[70.6 µM],CCN(CC)C[C@H]1O[C@H](Cc2cc(-c3ccccc3)on2)CC[C@@H]1O
-30%[70.6 µM],CN(C)Cc1cc(C[C@@H]2C[C@H](NC(=O)C3CCCC3)C2(C)C)no1
0%,CC(C)c1nc2nccc(-c3ccco3)n2n1
0%,COCC1CN(C(=O)COc2ccccc2)CC12CCNCC2 (stereo unspecified)
0%,COCC[C@]1(O)CCN(C(=O)CSc2ccccc2)C[C@H]1C
-19%,COc1ccc(C(=O)NCCc2ncc(C)n2C2CCC2)c(OC)n1
-1%[70.6 µM],Cc1ccccc1C(=O)N[C@H]1[C@H](O)[C@H](O)C[C@@H]1c1ccccc1C
5%,CNC(=O)N1CCC(C2CCN(C(=O)c3cccc(C#N)c3)C2)CC1 (stereo unspecified)
9%,CN1CC(=O)N(c2ccccc2F)Cc2c1ncnc2N1CCC(c2ccccc2)CC1
?,Cc1ccc(-c2nc(C3CC(=O)N(c4ccc(F)cc4)C3)no2)c(C)c1 (stereo unspecified)
2%,CSCC(=O)N1C[C@@H](NC(=O)NC(C)C)C[C@H]1C(=O)N[C@@H](Cc1cccs1)C(N)=O
-1%,COc1cccc(CCC(=O)N2CCC(c3noc(-c4cnccn4)n3)C2)c1 (stereo unspecified)
0%,Cc1nc2cc(N3CCCC(C(=O)NCc4ccc(N(C)C)cc4)C3)cnc2nc1C (stereo unspecified)
1%,COc1ccc(-c2ccc3nnc(CNC(=O)c4ccco4)n3n2)cc1
0%,Cc1cc(C)c(CNC(=O)c2cc(-c3ccccc3C)cc3c2OCCN3C(C)C)c(=O)[nH]1
4%,Cc1n[nH]c(C)c1CCCN(C)c1cc(C2CC(N)C2)nc(N)n1 (stereo unspecified)
?,O=C1N(CCc2ccccc2)c2ccccc2C12CCN(Cc1ccncc1)C2 (stereo unspecified)
5%,COc1ccc(Cl)cc1C(=O)NCc1nnc2cc(-c3nc(C4CC4)no3)ccn12
0%[70.6 µM],Cc1cc(C(=O)N[C@@H]2C[C@H](COc3ccc(S(C)(=O)=O)cc3)[C@@H](O)[C@H]2O)nn1C

16 compounds out of the list, sorted by length of the SMILES, highest first.
hNpr1 antagonist,Molecule
0%[70.6 µM],Cc1cc(C(=O)N[C@@H]2C[C@H](COc3ccc(S(C)(=O)=O)cc3)[C@@H](O)[C@H]2O)nn1C
2%,CSCC(=O)N1C[C@@H](NC(=O)NC(C)C)C[C@H]1C(=O)N[C@@H](Cc1cccs1)C(N)=O
0%,Cc1cc(C)c(CNC(=O)c2cc(-c3ccccc3C)cc3c2OCCN3C(C)C)c(=O)[nH]1
-1%[70.6 µM],Cc1ccccc1C(=O)N[C@H]1[C@H](O)[C@H](O)C[C@@H]1c1ccccc1C
5%,COc1ccc(Cl)cc1C(=O)NCc1nnc2cc(-c3nc(C4CC4)no3)ccn12
0%,Cc1nc2cc(N3CCCC(C(=O)NCc4ccc(N(C)C)cc4)C3)cnc2nc1C (stereo unspecified)
9%,CN1CC(=O)N(c2ccccc2F)Cc2c1ncnc2N1CCC(c2ccccc2)CC1
?,Cc1ccc(-c2nc(C3CC(=O)N(c4ccc(F)cc4)C3)no2)c(C)c1 (stereo unspecified)
-1%,COc1cccc(CCC(=O)N2CCC(c3noc(-c4cnccn4)n3)C2)c1 (stereo unspecified)
5%,CNC(=O)N1CCC(C2CCN(C(=O)c3cccc(C#N)c3)C2)CC1 (stereo unspecified)
4%,Cc1n[nH]c(C)c1CCCN(C)c1cc(C2CC(N)C2)nc(N)n1 (stereo unspecified)
1%,COc1ccc(-c2ccc3nnc(CNC(=O)c4ccco4)n3n2)cc1
-8%,CC(C)NC(=O)C1COC2(CCCCC2)N1C(=O)Cc1ccccc1 (stereo unspecified)
0%,COCC[C@]1(O)CCN(C(=O)CSc2ccccc2)C[C@H]1C
0%,COCC1CN(C(=O)COc2ccccc2)CC12CCNCC2 (stereo unspecified)
0%,CC(C)c1nc2nccc(-c3ccco3)n2n1

The list goes on.
hNpr1 antagonist,Molecule
6%,Cc1nc(C(=O)N2CC[C@H](NC(=O)c3cnccn3)C[C@H]2C(=O)N[C@@H](Cc2cccs2)C(N)=O)cs1
0%,COc1ccc(CC(=O)N2CCn3c(nn(-c4ccc(C)cc4)c3=O)C2)cc1
5%,CCc1ccc(CN2CCOCC(CO)C2)nc1 (stereo unspecified)
5%,CCCC(C)c1c(-c2ccccc2)ncn1CCNC(C)=O (stereo unspecified)
0%[70.6 µM],CC(C)C[C@@H](NC(=O)C1=C[C@@H](NC(=O)NC2CCCCC2)[C@@H](O)[C@H](O)C1)C(N)=O
-2%,Cc1ncsc1CN1CCCCCNC(=O)[C@@H]2CCC[C@@H]21
3%,CCNC(=O)CN1CCN(c2nccc(C3CCCC3)n2)CC1
-2%,O=C(CCC1CCN(S(=O)(=O)c2ccccc2F)CC1)NCc1ccncc1
-13%,CN(C)Cc1ccccc1CN(C)c1nc(-c2cccnc2)nc2c1CNC2
10µM*,O=C1N(Cc2cccnc2)C[C@H]2CN(Cc3ccc(C(F)(F)F)cc3)CCN12
5%,O=C(c1ccc2n[nH]nc2c1)N1CCC2(CC1)Nc1ccccc1NC2=O
-1%,O=C1NCCCCCN(C(=O)c2ccccn2)[C@H]2CCC[C@@H]12
0%,CCN1CCN(c2ccc3nnc(C4CCC4)n3n2)CC1
-11%,O=C(NCc1ccncc1)C1CN(Cc2ccccc2Br)CC12CCOCC2 (stereo unspecified)
-4%,CN(C)C(=O)c1ccc(OC2CCN(C(=O)c3cccs3)CC2)nc1
14µM*,COC(=O)[C@@H]1CCCN1c1ccc(-c2nc(-c3ccccc3F)no2)cn1
-6%[70.6 µM],CCOC(=O)C1CCN(C(=O)c2c[nH]c3ncccc23)CC1
17%,CNCCN1C(=O)CC[C@H]2CN(C(=O)CN3CC(=O)NC3=O)CC[C@H]21
1%,CCc1nc2nccc(-c3ccco3)n2n1
0%,CCc1nc(-c2c3n(c(=O)n(Cc4cccc(Br)c4)c2=O)CCCC3)no1
0%,Cc1cc(C(F)(F)F)nc(CCNC(=O)C2NCCc3[nH]cnc32)n1 (stereo unspecified)
0%,CCC(C)(C)C(=O)NC1CCN(c2cnn(CC3CC3)c(=O)c2)CC1
-17%,Cc1nc(C)c(C)c(N2CCCC(c3nccn3Cc3ccccc3)C2)n1 (stereo unspecified)
4%,O=C(CCc1cc2ccccc2[nH]c1=O)NCCCN1CCCC1=O
8%,COc1ccc(C(=O)N2CCCC(Cc3noc(-c4cnccn4)n3)C2)cc1 (stereo unspecified)
2%,O=C(O)C1(CCc2ccccc2)CCCN(c2ncnc3nc[nH]c23)C1 (stereo unspecified)
-16%,NC(=O)[C@@H]1CN(C2CCSCC2)C[C@H]1COc1ccccc1
1%,CN(C)C(=O)c1cccnc1OC1CCN(CCc2ccccc2)CC1
-27%,O=C(CCCc1ccccc1)N1CCC2(CC1)CC(O)CCO2 (stereo unspecified)
1%,CN(C)C(=O)c1ccc(OC2CCN(C(=O)c3cccc(Cl)c3)CC2)nc1
-1%,O=C([C@@H]1C[C@H](Oc2cccnc2)CN1C(=O)CCc1ccccc1)N1CCOCC1
-16%,Cc1ccc(CN2CCc3oc(C)c(C(=O)NC4CCCC4)c3C2)cc1
-17%,O=C(CC1CCCCC1)NCC(=O)N1CCCCCCNC(=O)CC1c1ccccc1 (stereo unspecified)
1%[70.6 µM],COc1ccccc1CNC1(Cc2cc(-c3ccccn3)on2)COC1
0%,COCC(=O)N1CCC(Oc2ccccc2C(=O)N2CCN(C)C(=O)[C@@H]2C)CC1
0%,CCOCCn1c(=O)n(CCN2C[C@H]3CC[C@H]2C3)c2cc(C(=O)O)cnc21
0%,CCc1noc(-c2cn(C3CCN(C(=O)C4(c5ccccc5)CC4)C3)nn2)n1 (stereo unspecified)
?,N#Cc1cccc(CN2CCOC[C@H]2c2ncc(-c3ccc(Cl)cc3)[nH]2)c1
-2%,CN(Cc1ccccc1)[C@@H]1[C@H](O)[C@H](CO)O[C@@H]1CNC(=O)Nc1ccc(F)cc1F
2%,NC(=O)N1CCCC(C(=O)NCCCn2nccc2C2CC2)C1 (stereo unspecified)
7%,CC(C)C1C(=O)NCCN1C(=O)c1coc(COc2ccc3c(c2)OCO3)n1 (stereo unspecified)
-6%[70.6 µM],CN(C)c1ccc2ncc(Nc3ccccc3-c3ccccc3)n2n1
0%,CCn1cc(C(=O)N[C@@H]2CN(c3ncccn3)C[C@H]2CO)cn1
-14%,O=C(Nc1cccc(F)c1)N1CCCC(Cn2c(C3CC3)nc3cccnc32)C1 (stereo unspecified)
-3%,CCc1cccc(C)c1NC(=O)Cn1nc2n(c1=O)CCCCC2
2%[70.6 µM],Cc1nn2c(c1-c1ccnn1C(C)C)N(C(=O)Cc1cccc(F)c1)CCC2
4%,CCOc1cc(=O)n2c(c1C(=O)Nc1ccc(F)c(C)c1)CCCC2
0%,O=C(CN1C(=O)CCC1=O)N1CCCCCCn2c(nnc2-c2ccc(F)cc2)CC1
-26%,CC(=O)Oc1c(-c2ccc(NC(=O)c3ccco3)cc2)c(-c2cccc(C)c2)nn1-c1ccc(F)cc1
-3%,O=C(NC1CCCCC1)[C@@H]1C[C@@H](O)CN1C1CCN(C(=O)c2ccc3c(c2)OCO3)CC1
5%[70.6 µM],O[C@@H]1CC(CNCc2nccs2)(COc2cccnc2)C[C@@H]1O (stereo partly specified)
-10%,CCS(=O)(=O)N1CC[C@H]2C(=O)NCCCCCN(Cc3cccnc3)[C@@H]2C1
-4%,CCC(CC)NC(=O)CCC1CCN(C(=O)c2ccccc2Cl)CC1
-1%,CC(C)Cc1cn(C2CCN(CC(C)c3ccccc3)CC2)nn1 (stereo unspecified)
-9%,COc1ccccc1CNC(=O)C1CCN(C(=O)N2CC3CC(C2)[C@H]2CCCC(=O)N2C3)CC1 (stereo partly specified)
0%,Cc1cc(S(=O)(=O)N(C)CC2CCOCC2)ccc1F
1%,CCC(=O)N1CCC(O)(c2ccccc2)[C@H](N2CCCC2)C1 (stereo partly specified)
4%,CC(C)(C)NC(=O)N1CCC(C2CCNC2)CC1 (stereo unspecified)
?,Cc1ccc2nc([C@H]3CCN(Cc4ccc(C(F)(F)F)cc4)C3)[nH]c2c1
1%,O=C1CC2(CCN(Cc3cccc(-c4ccccc4)c3)C2)C(=O)N1 (stereo unspecified)

New compounds follow:
hNpr1 antagonist,Molecule
5%,CN(C)C[C@@H]1CN(Cc2ccncc2)C[C@H]1NC(=O)c1cc(F)cc(F)c1
-2%,O=C(Nc1ccc(-c2nnc3n2CCCC3)cc1)c1cc(F)ccc1F
-13%,O=c1n(Cc2cc(F)cc(F)c2)nc2n1CCCCC2
-2%,COc1ccc(CNC(=O)C2CC(=O)N(c3n[nH]c4ccccc34)C2)cc1OC (stereo unspecified)
1%,CN(C(=O)Cn1c2c(c(=O)n1Cc1ccccc1)CCN(Cc1ccccc1)C2)c1ccccc1
-4%,COc1ccc(CNC(=O)c2c(C)noc2-c2ccco2)cc1
20%,O=C(c1cc(=O)[nH]c(=O)[nH]1)N1CCC2(CC1)OCCCC2O (stereo unspecified)
6%[70.6 µM],O=C(COc1ccccc1)N[C@H]1CO[C@H]2[C@@H]1OC[C@@H]2n1cc(CC2CCCCC2)nn1
3%,Cn1cnc(C(=O)N2CCCN(S(C)(=O)=O)c3ccccc32)c1
6%,Cc1[nH]cnc1CN1CCCC(C(=O)Nc2ccc(-c3cccc(F)c3)cc2)C1 (stereo unspecified)
-1%,Cc1nc2ccccc2n1Cc1cc(C(=O)N2CCN(C)C(=O)[C@@H]2C)n[nH]1
0%,COc1ccc(Cn2c(C3CCN(C(=O)c4cc(F)ccc4F)CC3)n[nH]c2=O)cc1
0%,Cc1c(F)cccc1NC(=O)N1CC2CC(C1)[C@H]1CCCC(=O)N1C2 (stereo partly specified)
3%,CC(=O)N1CCC(N2CCC3(CC2)CN(Cc2ccccc2)CC3CO)CC1 (stereo unspecified)
-21%[70.6 µM],O=C1NC2(CCN(Cc3ccc(F)cc3)C2)Oc2ccccc21 (stereo unspecified)
-10%,O=S(=O)(NCC1CCOCC1)c1cccc(F)c1
2%,COC1CN(c2ccc(C)cc2)C12CCN(C(=O)C(C)C)CC2 (stereo unspecified)
1%[70.6 µM],O=C(C[C@@H]1CCNC[C@@H]1Cc1cc(CSc2ccccc2)on1)N1CCCCC1
-4%,CN1CCCN(S(=O)(=O)c2cn(C)cn2)c2ccccc21
1%,Cc1cc2cc(C(=O)N3CC[C@@H]4[C@@H](CCC(=O)N4CCN)C3)ccc2o1
2%[70.6 µM],CN(Cc1ccc(F)cc1)Cc1ccnn1C
-2%,CC(C)C(=O)N1CCC2(CC1)CC(N(C(=O)c1ccccc1)C1CC1)CCO2 (stereo unspecified)
2%,OC(COc1ccccc1-c1ccncc1)CN1CCOCC1 (stereo unspecified)
-1%,Cc1[nH]ccc1C(=O)N(CCN1CCCCC1)CC1CCCN(C2CCCC2)C1 (stereo unspecified)
-19%,O=C(CCCc1ccccc1)N1CCC(c2noc(-c3ccccc3)n2)C1 (stereo unspecified)
3%,CCC(CC)n1c(=O)n(Cc2cc(C(C)C)no2)c2cc(C(=O)O)cnc21
5%[70.6 µM],Fc1cccc(-c2cnc([C@@H]3COCCN3C3CCCCC3)[nH]2)c1
0%,CCc1nnc([C@@H]2CC(F)(F)CN2C(=O)c2nccn2C)o1
-20%,FC(F)(F)c1ccc(CN2CCCC3(CC(Cc4ccccc4)=NO3)C2)cc1 (stereo unspecified)
-12%[70.6 µM],CC1=C[C@@H](CNC(=O)c2cccnc2)[C@H](C(C)C)C[C@H]1CC(=O)N1CCCC1
-2%,C[C@]1(CO)[C@H]2Cc3sc(-c4ccsc4)nc3[C@@H](CC(=O)Nc3cccc(O)c3)[C@]2(C)CC[C@H]1O
1%[70.6 µM],CC1=NOC2(CCN(Cc3ccc(C(F)(F)F)cc3)CC2)C1
